Screening results deposited in PubChem BioAssay by National Center for Advancing Translational Sciences (NCATS).
miR-21 FLuc: qHTS Assay for Modulators of miRNAs and/orActivators of miR-21; HeLa miR-21 FLuc reporter, luciferase, 48 h; Potency, µM (highest dose often 38.3 µM), without a hit: at the highest dose reporter change, positive = more light; AID 2288, 2010; 340,000 tested, under 10 active; active = well fitted rising curve with a large enough effect; inconclusive = small, poorly fitted or top-dose-only effect; inactive = no such curve, though single readings can be large or run the other way;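 note: % of control where 0% means no effect; miR-21 action dims this reporter so a rising signal means less miR-21 action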
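HeLa cells stably expressing CMV-driven firefly luciferase with a downstream miR-21 binding sequence, endogenously expressing miR-21, were treated with titrations (up to about 40uM final) for 48 hours at 37 degree Celsius. Luciferase luminescence was read after lysis.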
Rango release inh: qHTS Assay for Inhibitors of RanGTP induced Rango (Ran-regulated importin-beta cargo) - Importin beta complex dissociation; Potency, µM (series often up to 46.1 µM), for the others: at the highest dose activity change, negative = inhibition; Biochemical FRET Rango-importin beta, RanGTP-induced dissociation; Snurportin-1 (Homo sapiens) + GTP-binding nuclear protein Ran (Homo sapiens) + Importin …; 340,000 tested, 0.071% active; AID 540253, 2011; active means falling FRET ratio curve, often poorly fitted, with flat reads before Ran was added; inconclusive means other falling curves, or compound fluorescence or quenching; inactive means flat or rising ratio curve;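 note: potency is the fitted concentration of half-maximal effect; % of control where 0% means no effect; nearly all actives have a fitted effect of over 45% in size; -100% = wells without RanGTP and RCC1; the record marks most hits as doubtful in a second field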
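Rango/importin beta premix (0.1/0.25 uM final), PBS + 1 mM DTT + 0.02% Tween-20 + 0.1% BSA; cpd 5 min RT; FRET pre-read; + RanGTP-RCC1 (0.6 uM Ran, 2 mM GTP, 0.2 uM RCC1); 45 min RT; FRET post-read, ex 430, em 486/530 nm.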
GLA inh pH 4.5: qHTS Assay for Inhibitors of Human alpha-Galactosidase at pH 4.5. Alpha-galactosidase A (Homo sapiens), P06280. purified enzyme, 4-MU-alpha-Gal fluorescence, pH 4.5. activity change, negative = inhibition, % at 105 µM. 230,000 tested, under 10 active; inconclusive = small, poorly fitted or top-dose-only inhibition, or a rising curve; inactive = flat fitted curve, though single readings scatter; no compound was filed as active;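 note: 0% = full activity with enzyme and -100% = basal without enzyme; dose as in the result columns while the protocol names 77 µM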
Rango complex inh: qHTS Assay for Inhibitors of Rango (Ran-regulated importin-beta cargo) - Importin beta complex formation | Importin subunit beta-1 (Homo sapiens), Q14974 | Rango CFP/YFP FRET sensor + importin beta, 45 min | Potency, µM (highest dose often 92.2 µM), for the others: top-dose inhibition of complex formation | 340,000 tested, 0.031% active | AID 540263, 2011; active = rising FRET ratio curve, often small or poorly fitted; inconclusive = mostly compound fluorescence or quenching in the first reads; inactive = flat curves in all reads;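 note: potency is the fitted concentration of half-maximal effect; 0% = DMSO wells and 100% = buffer wells lacking importin beta; nearly all actives have a fitted effect of over 15% in size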
Target sequence (Q14974 whole entry, looked up): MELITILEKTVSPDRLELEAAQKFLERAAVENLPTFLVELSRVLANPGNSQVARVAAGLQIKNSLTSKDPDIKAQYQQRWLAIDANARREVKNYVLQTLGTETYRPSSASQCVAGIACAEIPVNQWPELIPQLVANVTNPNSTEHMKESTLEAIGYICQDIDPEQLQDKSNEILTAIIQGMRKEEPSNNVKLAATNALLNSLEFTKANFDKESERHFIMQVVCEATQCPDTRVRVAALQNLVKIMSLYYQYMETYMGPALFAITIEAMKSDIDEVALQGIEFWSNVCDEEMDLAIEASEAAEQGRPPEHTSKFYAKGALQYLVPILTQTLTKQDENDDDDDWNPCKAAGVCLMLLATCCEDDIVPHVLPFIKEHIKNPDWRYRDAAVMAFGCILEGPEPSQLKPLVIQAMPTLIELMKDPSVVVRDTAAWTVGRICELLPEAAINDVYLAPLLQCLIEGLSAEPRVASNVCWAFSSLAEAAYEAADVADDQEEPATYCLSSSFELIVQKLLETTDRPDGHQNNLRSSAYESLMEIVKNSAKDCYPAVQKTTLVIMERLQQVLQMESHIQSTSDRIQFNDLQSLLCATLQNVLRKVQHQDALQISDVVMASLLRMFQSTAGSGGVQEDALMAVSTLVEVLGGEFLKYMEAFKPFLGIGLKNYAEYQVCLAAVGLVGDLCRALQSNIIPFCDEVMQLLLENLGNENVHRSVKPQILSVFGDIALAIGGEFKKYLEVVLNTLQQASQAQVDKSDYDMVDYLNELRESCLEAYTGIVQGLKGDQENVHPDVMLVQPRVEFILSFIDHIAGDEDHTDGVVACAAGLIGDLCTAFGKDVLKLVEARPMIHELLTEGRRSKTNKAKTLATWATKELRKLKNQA
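FRET biosensor (snurportin 1 IBB flanked by EYFP and cerulean), 50 nM, with compound 5 min, then 0.125 microM importin beta in PBS, 1 mM DTT, 0.02% Tween-20, 0.1% BSA. CFP/YFP ratio read after 45 min at room temperature; pre-read flags interference.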
An asterisk follows results filed as active; u = inconclusive; x = not tested or not shown. These rows are one share of the data (hit frequency here may not be typical).

item	mol	miR-21 FLuc	Rango release inh	GLA inh pH 4.5	Rango complex inh
1	CCOc1cc(N2CCOCC2)c(OCC)cc1NC(=O)CN1CCCC1	-3.1%	-2.2%	-7.5	-3.5%
2	CCOc1cc2c(cc1O)CCC1C2CCC2(C)C(O)CCC12 (centres undefined)	x	-4.1%	x	7.9%
3	CCC(Cc1ccccc1)NC(=O)CCc1ccccc1 (centres undefined)	-4.1%	-7.4%	x	-1.4%
4	COc1ccc(C(=O)N/C(=C\c2ccc3c(c2)OCO3)C(=O)Nc2ccc(C(=O)O)cc2)cc1	-1.5%	-14.6%	4.4	u
5	Cc1c(CCO)c(=O)[nH]n1S(=O)(=O)c1ccccc1	1.0%	46.0%	11.7	-0.6%
6	COC(=O)[C@@H]1CC[C@H](C)[C@@H](c2ccc(C)cc2)N1C(=O)c1ccc(/C=N/O[C@@H](C)c2cn([C@H](CO)Cc3ccccc3)nn2)cc1	u	x	-15.3	x
7	CCc1ccc(C2CC(c3ccccc3Cl)Nc3nc(N)nn32)cc1 (centres undefined)	-5.6%	-8.5%	1.8	9.6%
8	N#C/C(=C\c1ccc(-c2ccc([N+](=O)[O-])cc2)o1)C(=O)Nc1nc(-c2cccs2)cs1	-2.1%	18.3%	-3.7	-6.6%
9	COc1cccc(Nc2nc(-c3sc(NC(=O)CC(C)C)nc3C)cs2)c1	24.8%	-13.7%	-2.6	u
10	Cc1ccc(SCc2cc(=O)[nH]c(N3CCN(Cc4ccccc4)CC3)n2)cc1	-5.2%	-7.4%	-4.0	0.2%
11	CCC1(CC)NC(=O)N(CC(=O)OCC(=O)c2ccccc2OC)C1=O	x	8.4%	x	-1.8%
12	Cc1ccc(Oc2ccc(NC(=O)c3ccco3)cc2)cc1	-25.7%	27.2%	-5.0	3.7%
13	CC(C)C[C@H](NC(=O)c1nc[nH]c1C(=O)N[C@@H](CC(C)C)C(=O)OCc1ccccc1)C(=O)OCc1ccccc1	6.4%	-15.6%	x	3.7%
14	CCCc1nnc(NC(=O)CCC(=O)NC2CC2)s1	-2.5%	0.1%	x	-1.3%
15	O=C(O)c1ccccc1-c1ccccc1C(=O)NCCCO	-0.3%	-5.3%	-3.4	0.7%
16	O=C(CCC(=O)c1cccs1)NNC(=O)c1cc(Cl)ccc1Cl	x	-1.2%	x	-2.5%
17	Cc1cn(C)c(=O)n(C)c1=O	0.5%	1.9%	2.2	2.9%
18	Cn1c(-c2ccco2)n[nH]c1=S	-1.7%	7.0%	-4.8	-0.9%
19	CC(C)C1Nc2c(O)cc(Cl)c([N+](=O)[O-])c2C2C=CCC21 (centres undefined)	u	-9.3%	-3.5	4.3%
20	CCCC(C(=O)Nc1ccc(C)c(S(=O)(=O)N2CCOCC2)c1)c1ccccc1 (centres undefined)	x	-15.4%	x	-2.0%

Sorted by SMILES length (highest first): 3 of the compounds above.
item	mol	miR-21 FLuc	Rango release inh	GLA inh pH 4.5	Rango complex inh
1	CCOc1cc(N2CCOCC2)c(OCC)cc1NC(=O)CN1CCCC1	-3.1%	-2.2%	-7.5	-3.5%
18	Cn1c(-c2ccco2)n[nH]c1=S	-1.7%	7.0%	-4.8	-0.9%
17	Cc1cn(C)c(=O)n(C)c1=O	0.5%	1.9%	2.2	2.9%

Rewritten with values under each structure: part of the list above.
Order of values: miR-21 FLuc	Rango release inh	GLA inh pH 4.5	Rango complex inh
#5 Cc1c(CCO)c(=O)[nH]n1S(=O)(=O)c1ccccc1
  1.0%	46.0%	11.7	-0.6%
#6 COC(=O)[C@@H]1CC[C@H](C)[C@@H](c2ccc(C)cc2)N1C(=O)c1ccc(/C=N/O[C@@H](C)c2cn([C@H](CO)Cc3ccccc3)nn2)cc1
  u	x	-15.3	x
#7 CCc1ccc(C2CC(c3ccccc3Cl)Nc3nc(N)nn32)cc1 (centres undefined)
  -5.6%	-8.5%	1.8	9.6%

Later entries
item	mol	miR-21 FLuc	Rango release inh	GLA inh pH 4.5	Rango complex inh
21	CC(C)C[C@H](NC(=O)N1CC(=O)Nc2ccccc21)C(=O)N1CCC(C(=O)O)CC1	3.3%	-5.3%	x	0.2%
22	Cc1ccc(Cl)cc1NS(=O)(=O)c1cn(C)nc1C	-2.8%	-13.2%	x	-3.7%
23	CCOc1ccc(N2C(=O)CC(/C=C3/N(C)c4ccccc4C3(C)C)C2=O)cc1 (centres undefined)	-1.5%	-18.7%	8.4	2.9%
24	COc1ccc(CCC(=O)NNC(=O)Nc2ccc(C(C)=O)cc2)cc1	-4.0%	0.0%	x	-2.3%
25	Cc1sc2nc(COC(=O)c3cccc(OC(F)F)c3)[nH]c(=O)c2c1C	-5.1%	5.7%	0.4	-1.9%
26	O=C(O)COc1ccc2c(c1)O/C(=C\c1ccco1)C2=O	0.3%	u	x	u
27	CC1CCCCN1CCCNC(=O)c1c(O)nc2ccccn2c1=O (centres undefined)	-4.5%	-9.1%	x	-3.6%
28	Nc1nn2cc(-c3ccccc3)nc2c2ccccc12	-63.7%	-12.8%	14.0	1.5%
29	N#C/C(=C\c1ccc([N+](=O)[O-])cc1)C(=O)Nc1ccccc1O	-23.2%	-8.5%	-24.0	-1.0%
30	CCCc1cc(=O)[nH]c(SCCc2ccccc2)n1	-35.6%	6.8%	x	-5.9%
31	O=C(CC1CCCC1)NNC(=O)c1ccc(F)cc1	x	38.7%	x	9.3%
32	CCOc1ccccc1-n1c(SCC(=O)N(CC)CC)nnc1-c1ccccn1	1.9%	22.3%	-3.2	-1.5%
33	COc1cc(O)c2c(=O)c3c(OC)c(O)ccc3oc2c1	-98.6%	20.9%	-5.6	7.7%
34	Cc1ccc(NC(=O)CCC(=O)N/N=C/C=C/c2ccccc2)cc1	-10.8%	1.8%	3.7	-0.6%
35	COc1ccc(CNC(=O)C2CCN(S(=O)(=O)c3ccc(SC)cc3)CC2)cc1	6.9%	15.8%	x	-0.1%
36	O=C(CSc1nnc2ccccn12)Nc1ccc2c(c1)OCCO2	-44.4%	-4.8%	-4.1	-2.2%
37	Cc1cccc(NC(=O)C(C)SCc2nc3sc4c(c3c(=O)[nH]2)CCCC4)n1 (centres undefined)	x	-9.7%	x	u
38	CCCCOC(=O)c1ccc(NC(=O)c2ccoc2C)cc1	-36.5%	16.3%	-3.8	-4.4%
39	O=C(Nc1ccc(Oc2ncccn2)cc1)c1ccco1	-22.9%	10.6%	5.7	3.0%
40	Nc1ccc2c(c1)-c1ccc(F)cc1C2=O	x	1.9%	x	10.6%
41	Cc1nc2ccc(NC(=S)N3CCN(c4ccccn4)CC3)cc2nc1C	-9.4%	2.4%	-0.4	5.1%
42	Cc1c(Cl)cccc1NC(=O)CS(=O)(=O)c1ccccc1	5.0%	-2.6%	x	-6.9%
43	Cc1ccccc1OCCC(=O)Nc1ccc(N2CCOCC2)cc1N1CCOCC1	x	5.5%	x	-0.6%
44	Nc1c(N(CCC2=CCCCC2)C(=O)CCCOc2ccccc2)c(=O)[nH]c(=O)n1Cc1ccccc1	x	-13.1%	x	0.1%
45	COc1ccccc1NC(=O)N1c2ccc(F)cc2CCC1C (centres undefined)	-8.4%	0.3%	-9.0	2.0%
46	CCOc1cc(NC(=S)NCC2CCCO2)c(OCC)cc1NC(=O)C1CC1 (centres undefined)	-1.1%	-4.6%	-9.9	3.3%
47	CCC(=O)Nc1nc2ccc3sc(C)nc3c2s1	-38.0%	-11.8%	6.8	-1.8%
48	Cn1c(N)c(C(=O)COC(=O)c2cnc(Cl)c(Cl)c2)c(=O)n(C)c1=O	0.2%	11.7%	-3.6	-2.3%
49	CCCCn1c(N)c(N(CCOC)C(=O)CC(NC(=O)c2ccccc2Cl)c2ccccc2)c(=O)[nH]c1=O (centres undefined)	x	-14.2%	x	1.2%
50	CCOc1ccc(CN2CCN(Cc3cn(CC)nc3C)CC2CCO)cc1 (centres undefined)	-5.0%	7.6%	-3.1	4.4%
51	COCCN(C(=O)c1snc(C(N)=O)c1N)C(C(=O)NC1CCCCC1)c1ccc(OC)c(OC)c1 (centres undefined)	-3.3%	13.6%	x	0.9%
52	O=C1C(Cl)=C(N2CCCCC2)C(=O)N1c1ccccc1Cl	5.8%	u	-2.6	u
53	O=C1SCCC1NS(=O)(=O)c1ccccc1[N+](=O)[O-] (centres undefined)	0.0%	3.2%	1.5	1.1%
54	CC(C)CNC1=C(C(=S)Nc2ccccc2)C(=O)CC(C)(C)C1	-1.4%	7.0%	-3.3	13.0%
55	COC(=O)c1cc(OC)c(OC)cc1NC(=O)CSc1nnnn1Cc1ccccc1	0.1%	-9.7%	-6.0	0.7%
56	Cc1cc(=O)n2nc(N3CCCC(C(=O)NCCCN4CCc5ccccc5C4)C3)sc2n1 (centres undefined)	-2.9%	5.5%	-6.4	-1.2%
57	CCC1(C)N=C(c2ccc3c(c2)OCO3)CC(c2ccccc2O)N1 (centres undefined)	-19.5%	-5.1%	-2.0	0.0%
58	CCc1cc(=O)oc2cc(C)cc(OCc3nn[nH]n3)c12	-5.8%	-16.8%	7.6	-2.1%
59	CC(=O)/C=C/c1ccc(C)o1	-2.4%	u	x	-1.2%
60	CCN(Cc1ccccc1)C(=O)COC(=O)c1cc(S(=O)(=O)Nc2c(C)n(C)n(-c3ccccc3)c2=O)ccc1C	2.4%	13.0%	2.5	-0.4%

Structures from the list above with fluorine:
item	mol	miR-21 FLuc	Rango release inh	GLA inh pH 4.5	Rango complex inh
25	Cc1sc2nc(COC(=O)c3cccc(OC(F)F)c3)[nH]c(=O)c2c1C	-5.1%	5.7%	0.4	-1.9%
31	O=C(CC1CCCC1)NNC(=O)c1ccc(F)cc1	x	38.7%	x	9.3%
40	Nc1ccc2c(c1)-c1ccc(F)cc1C2=O	x	1.9%	x	10.6%
45	COc1ccccc1NC(=O)N1c2ccc(F)cc2CCC1C (centres undefined)	-8.4%	0.3%	-9.0	2.0%

Continuation:
item	mol	miR-21 FLuc	Rango release inh	GLA inh pH 4.5	Rango complex inh
61	COc1cc(NC(=O)c2onc(C)c2Cl)cc(OC)c1OC	10.7%	9.4%	x	0.1%
62	CC(=O)Nc1ccc(N=NN2CCOCC2)cc1	-3.4%	0.3%	4.7	-3.9%
63	COc1ccc(C2=NOC(CNC(=S)N3CCOCC3)C2)cc1 (centres undefined)	-59.4%	-0.3%	4.8	0.0%
64	Cc1c(NC(=O)C(C)OC(=O)CCc2ccccc2)c(=O)n(-c2ccccc2)n1C (centres undefined)	-0.3%	-0.1%	11.7	-4.4%
65	CC(C)c1ccc(CNc2ncccn2)cc1	-52.6%	0.8%	x	2.6%
66	O=C(CN1CCCCCCC1)Nc1ccc(Cl)cc1Cl	-0.3%	-4.5%	-13.0	4.0%
67	Cc1ccc(S(=O)(=O)N2CCN(C3CCN(Cc4ccccc4)CC3)CC2)cc1	-0.4%	5.6%	-6.2	-3.1%
68	COC(=O)CC1C(=O)NCCN1C(=O)c1sc2ccccc2c1Cl (centres undefined)	-12.8%	12.0%	-1.1	-1.1%
69	O=C(O)c1ccc(Cl)c(NC(=S)NC(=O)c2cccc(COc3ccccc3)c2)c1	-17.7%	-6.2%	x	-0.2%
70	COC(=O)N(NC(=O)C(O)(c1ccccc1)c1ccccc1)c1ccccc1	2.3%	-22.4%	2.9	u
71	CCn1c(-c2csc(-c3ccccc3)n2)n[nH]c1=S	-40.0%	1.4%	-6.4	0.5%
